DUX4 inh – DUX4-mediated transcription inhibition; 293T-iDUX4 ZSCAN4-Gaussia luciferase reporter, 24 h; stronger effect = lower value; activity change, negative = inhibition, % (concentration not given with the values); hit rate 0.8% among 37,000;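 active = -10% or lower and over 25 points stronger than a control reporter; inconclusive = -10% or lower with a smaller gap; inactive = above -10%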;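 also: 0% = median of neutral control wells and -100% = median of positive control wells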
DUX4 inh difference – also measured in DUX4 inh; calls as there; Gaussia minus Italica difference, %; measured here: selective DUX4 reporter inhibition;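 worked out from the two reporters; negative = selective loss of the DUX4 reporter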
DUX4 inh control – further read-out of DUX4 inh, marked with its call; activity change, negative = inhibition, %; measured here: Italica tet-on control reporter;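 0 = neutral control and -100 = positive control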
* = called active by the depositor; u = inconclusive; x = not tested or not shown; & = joins results of further samples. This is a subset. The share of hits here may be higher or lower than overall.

#	canonical_smiles	DUX4 inh	DUX4 inh difference	DUX4 inh control
1	CN(C)CC#Cc1ccc([C@@H]2[C@H]3CN(C(=O)Cc4ccccn4)CCCCN3[C@H]2CO)cc1	9.2	6.1	3.1
2	Cc1ccc(OC(=O)N(C)C[C@@H]2OCc3cnnn3CCCC(=O)N([C@@H](C)CO)C[C@@H]2C)cc1	2.8	9.6	-6.8
3	COC(=O)[C@H]1[C@H](CO)[C@H]2Cn3c(ccc(-c4cccc(F)c4)c3=O)[C@@H]1N2Cc1ccncc1	3.1	-0.9	4.0
4	COC(=O)[C@H]1[C@H](CO)[C@H]2Cn3c(ccc(-c4cccc(OC)c4)c3=O)[C@@H]1N2C(=O)c1cnccn1	-3.0	-2.0	-1.0
5	COC(=O)[C@H]1[C@H](CO)[C@H]2Cn3c(ccc(C4=CCCCC4)c3=O)[C@@H]1N2C(=O)Cc1ccccn1	-8.4	0.5	-8.9
6	O=C(Cc1ccccc1)N1CCCCN2[C@@H](CO)[C@@H](c3ccc(C#CC4(O)CCCC4)cc3)[C@@H]2C1	-3.2	-4.1	1.0
7	CCC(=O)N1[C@@H]2Cn3c(ccc(-c4cccc(F)c4)c3=O)[C@H]1[C@@H](C(=O)OC)[C@@H]2CO	1.4	-2.4	3.9
8	C/C=C/c1ccc(C2[C@@H]3CN(C(=O)C4CCCC4)C[C@H]2N3)cc1 (stereo partly drawn)	12.4&1.3	7.4&5.4	5.0&-4.1

Filtered by structure: those above with four or more nitrogen atoms
#	canonical_smiles	DUX4 inh	DUX4 inh difference	DUX4 inh control
1	CN(C)CC#Cc1ccc([C@@H]2[C@H]3CN(C(=O)Cc4ccccn4)CCCCN3[C@H]2CO)cc1	9.2	6.1	3.1
2	Cc1ccc(OC(=O)N(C)C[C@@H]2OCc3cnnn3CCCC(=O)N([C@@H](C)CO)C[C@@H]2C)cc1	2.8	9.6	-6.8
4	COC(=O)[C@H]1[C@H](CO)[C@H]2Cn3c(ccc(-c4cccc(OC)c4)c3=O)[C@@H]1N2C(=O)c1cnccn1	-3.0	-2.0	-1.0

Carrying on:
#	canonical_smiles	DUX4 inh	DUX4 inh difference	DUX4 inh control
9	C[C@@H]1CN([C@@H](C)CO)C(=O)CCCn2nncc2CO[C@@H]1CN(C)C(=O)Oc1cccc2ccccc12	u	x	x
10	COC(=O)[C@H]1[C@H](CO)[C@H]2Cn3c(ccc(C4=CCCCC4)c3=O)[C@@H]1N2CCc1ccccc1	-0.2	8.9	-9.1
11	O=C(O)[C@@H]1[C@@H](CO)[C@@H]2Cn3c(ccc(C4=CCCC4)c3=O)[C@H]1N2C(=O)Cc1ccccn1	-3.9	0.1	-4.0
12	COC(=O)C[C@@H]1CC[C@H]2NC[C@@H](O)COC[C@@H]2O1	4.9	7.1	-2.2
13	N#Cc1ccc(-c2ccc([C@H]3[C@@H](CO)N4CCCCN(C(=O)Cc5ccccc5)C[C@H]34)cc2)cc1	u	x	x
14	N#Cc1ccc(-c2ccc([C@H]3[C@H]4CN(C(=O)Cc5ccccc5)CCCCN4[C@H]3CO)cc2)cc1	26.9	13.1	13.9
15	O=C(Cc1cccnc1)N1CCCCN2[C@@H](CO)[C@H](c3ccc(C#CC4CCCC4)cc3)[C@@H]2C1	u	x	x
16	O=C(Cc1ccncc1)N1CCCCN2[C@H](C1)[C@H](c1ccc(C#Cc3ccccc3F)cc1)[C@@H]2CO	-62.7*	-38.8*	-23.9*
17	C[C@@H]1CN([C@H](C)CO)C(=O)CCCn2nncc2CO[C@H]1CN(C)C(=O)Oc1ccc2ccccc2c1	6.9	7.6	-0.7
18	COC(=O)[C@@H]1[C@@H](CO)[C@@H]2Cn3c(ccc(-c4cccc(F)c4)c3=O)[C@H]1N2C(=O)CC1CC1	-5.6	-11.5	5.9

Arranged by formula weight (ascending): some entries from above.
#	canonical_smiles	DUX4 inh	DUX4 inh difference	DUX4 inh control
11	O=C(O)[C@@H]1[C@@H](CO)[C@@H]2Cn3c(ccc(C4=CCCC4)c3=O)[C@H]1N2C(=O)Cc1ccccn1	-3.9	0.1	-4.0
10	COC(=O)[C@H]1[C@H](CO)[C@H]2Cn3c(ccc(C4=CCCCC4)c3=O)[C@@H]1N2CCc1ccccc1	-0.2	8.9	-9.1
14	N#Cc1ccc(-c2ccc([C@H]3[C@H]4CN(C(=O)Cc5ccccc5)CCCCN4[C@H]3CO)cc2)cc1	26.9	13.1	13.9
16	O=C(Cc1ccncc1)N1CCCCN2[C@H](C1)[C@H](c1ccc(C#Cc3ccccc3F)cc1)[C@@H]2CO	-62.7*	-38.8*	-23.9*
9	C[C@@H]1CN([C@@H](C)CO)C(=O)CCCn2nncc2CO[C@@H]1CN(C)C(=O)Oc1cccc2ccccc12	u	x	x

Source: PubChem
